# YopH inh – blocks Yersinia enterocolitica YopH tyrosine phosphatase | fluorescence Ex485/Em525 | 140,000 tested, 0.16% active | inhibition, %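 (about 10 µM by stock and volumes)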;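 active = inhibition of 50% or more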;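 note: controls were vehicle for no effect and minimum signal wells for full effect; inactives centre near -20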
# Arbovirus inh – antivirals against arbovirus infection; inhibition, % at 10 µM; 200,000 tested, 0.37% active; AID 1251; arbovirus infection cell-based antiviral screen;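 active = inhibition from about 30%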;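 note: bluetongue infection of BSR cells; cell survival read as ATP light after 72 h; 0% = infected wells without compound and 100% = uninfected wells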
# Mtb betalactam – beta-lactam sensitization of Mtb H37Rv; M. tuberculosis H37Rv growth with meropenem, percent inhibition; hits of this screen are not shown here; inhibition, % at 25 µM; 330,000 tested, 0.27% active;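 active = about 74% or more and at least 40 points above the plate without the antibiotic, then above 30% in a dose series; inconclusive = first-round hits that could not be retested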;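 note: growth measured after seven days incubation then overnight dye step; 0% = bacteria only wells and 100% = bacteria with antibiotic; twin plates without the antibiotic show which effects depend on it; some results filed as inactive read as strong as hits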
# RecA splice inh – Mtb RecA intein splicing inhibition. 290,000 tested, 0.75% active. P9WHJ3. AID 2221. cell-free RecA intein splicing, fluorescence. inhibition, %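 (about 9 µM by stock and volumes)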; in the data active = inhibition above about 30%; inconclusive = no clear call, values can overlap the other calls;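 note: 0% = vehicle wells and 100% = reference inhibitor control wells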
# Target sequence (P9WHJ3 whole entry, looked up, canonical isoform): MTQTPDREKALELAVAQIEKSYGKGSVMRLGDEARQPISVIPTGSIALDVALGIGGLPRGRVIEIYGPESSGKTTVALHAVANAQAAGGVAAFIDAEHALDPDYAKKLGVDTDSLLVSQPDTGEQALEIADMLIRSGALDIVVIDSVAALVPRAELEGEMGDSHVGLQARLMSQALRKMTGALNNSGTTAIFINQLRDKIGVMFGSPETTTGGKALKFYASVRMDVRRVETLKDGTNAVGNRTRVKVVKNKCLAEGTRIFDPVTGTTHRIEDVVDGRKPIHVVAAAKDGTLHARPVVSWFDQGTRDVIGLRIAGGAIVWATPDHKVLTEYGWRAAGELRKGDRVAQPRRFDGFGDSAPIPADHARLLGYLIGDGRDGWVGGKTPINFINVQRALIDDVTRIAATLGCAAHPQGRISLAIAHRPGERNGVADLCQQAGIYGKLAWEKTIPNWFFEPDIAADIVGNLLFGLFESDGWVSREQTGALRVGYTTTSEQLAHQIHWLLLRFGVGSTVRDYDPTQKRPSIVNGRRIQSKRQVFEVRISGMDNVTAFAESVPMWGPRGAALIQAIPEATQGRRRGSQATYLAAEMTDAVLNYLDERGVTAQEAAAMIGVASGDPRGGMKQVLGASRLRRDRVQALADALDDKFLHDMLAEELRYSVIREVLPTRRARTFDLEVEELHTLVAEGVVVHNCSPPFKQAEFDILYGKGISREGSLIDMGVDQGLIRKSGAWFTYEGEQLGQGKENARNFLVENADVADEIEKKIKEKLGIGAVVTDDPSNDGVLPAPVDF
# Mtb H37Rv – M. tuberculosis H37Rv growth inhibitors, H37Rv strain (AID 1626); inhibition, % at 10 µM; hits with a dose series show IC50 in µM; M. tuberculosis H37Rv growth inhibition; higher % means a stronger effect; 220,000 tested, 0.95% active;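 active = confirmed in a dose series; inconclusive = inhibition above 80% but not taken into the dose series; inactive = below 80% or under 30% at every dose of the series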;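 note: bacteria incubated seven days before Alamar blue readout; 0% = bacteria only wells and 100% = bacteria with antibiotic wells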
# Arbovirus inh repeat – also measured in Arbovirus inh; calls as there; inhibition, %; measured here: 10K subset replicate screen; many hits read low in the repeat;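 first of two repeat runs on a subset; 0% = infected and 100% = uninfected wells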
# The depositor's hits bear a star; u = inconclusive; x = no result given. The list is partial; count on the stated rates, not on these rows.
SMILES,YopH inh,Arbovirus inh,Mtb betalactam,RecA splice inh,Mtb H37Rv,others
COC(=O)c1ccc(Cl)c(S(=O)(=O)N2CCCC2)c1,x,0,0,-1.5,5%,
CC1CCN(Cc2nc3c(c(=O)n(C)c(=O)n3C)n2CCc2ccccc2)CC1,3,x,-2,3.0,4%,
COC(=O)[C@H](C)NC(=O)Nc1cc(Cl)ccc1C,12,-3,1,-0.5,-6%,
O=c1c(Cc2ccc(F)cc2)c(O)ccn1Cc1ccc(Cl)cc1Cl,-26,-1,-14,-1.6,9%,
Cc1ccc2c(NC(=O)C3CC3)cccc2n1,-32,6,51,2.2,-2%,
CCOC(=O)C1=C(C)N=c2s/c(=C\c3cccc(OCC(=O)O)c3)c(=O)n2C1c1ccccc1 (stereo not drawn),x,x,8,3.3,x,
OCCC1CN(Cc2cccn2-c2nccs2)CCN1C1CCCCC1 (stereo not drawn),x,-1,-3,3.0,3%,
COc1ccc(S(=O)(=O)N(C)C)cc1NC(=O)CN1C(=O)NC2(CCCC2)C1=O,x,x,2,-1.0,x,
Cc1cc2cc(C#N)c(SCC(=O)Nc3nonc3C)nc2cc1C,x,x,6,0.2,x,
CCN(CC)C(=O)COC(=O)c1ccc(C)c(NC(=O)c2ccco2)c1,x,-3,2,-0.8,3%,
Cc1cccc(C(=O)NC2CC3CCCC(C2)N3C(=O)NC2CCCCC2)c1 (stereo not drawn),-6,-1,-1,-1.3,-5%,
Cc1ccc(NC(=O)CCN2C(=O)OC(C)(C)C2(C)O)cc1 (stereo not drawn),x,0,-1,-3.0,-8%,
O=C(/C=C/c1ccc(F)cc1)N1CCCN(C(=O)/C=C/c2ccc(F)cc2)CC1,-7,15,-3,0.2,11%,
COCCOC1CCN(C(=O)C2CCC(=O)N(CCc3ccc(OC)cc3)C2)CC1 (stereo not drawn),x,x,-3,-0.1,x,
COc1cccc(NC(=O)C(NC2CCCC2)c2ccccc2)c1 (stereo not drawn),-92,-6,-6,-2.9,6%,
Cc1cccc(-n2cnc(C(=O)O)c2)n1,x,-4,5,0.5,0%,
COc1cccc(S(=O)(=O)N2CCN(C(=O)c3ccco3)CC2)c1,x,2,-1,-2.6,3%,
Cc1sc2ncn3c(C)nnc3c2c1C,-45,3,-9,-3.9,-6%,
O=C(Nc1nnc(-c2ccncc2)o1)c1ccccc1,x,4,70,3.6,68%,
CCC(=O)c1ccc(OCC(O)Cn2nc(C)c(C(C)=O)c2C)cc1 (stereo not drawn),x,-2,-2,10,-2%,
Nn1c(SC/C=C/c2ccccc2)nnc1-c1cccnc1,-15,-6,-1,-1.6,5%,
CC12CCC(=O)N1C(C(=O)NCCN1C(=O)S/C(=C\c3ccccc3F)C1=O)CS2 (stereo not drawn),x,x,-3,2.0,x,
O=c1cc(CSc2nnc(COc3cccc4ccccc34)o2)c2ccccc2[nH]1,x,x,2,3.9,x,
Cc1ccc(CONC(=O)c2ccccc2)cc1,x,x,3,-2.6,12%,
Cc1noc(C(=O)Nc2ccc3c(c2)OCO3)c1Cl,-18,-20,-1,6.6,6%,Arbovirus inh repeat=-10
CN(C)C(=S)Nc1ccc2c(c1)OCCO2,x,x,4,-1.0,-7%,
COc1ccc(N2C(=NC(=O)CC3CCCCC3)SC3CS(=O)(=O)CC32)cc1 (stereo not drawn),x,x,-3,2.8,x,
CCCCc1nc2cc(C(=O)N(C)C3CCOCC3)ccc2o1,x,x,-5,-3.2,x,
O=C(Nc1nnc(C2CC2)s1)c1ccco1,x,18,-8,0.4,0%,
O=C(Cc1ccc([N+](=O)[O-])cc1)OCc1c(F)cccc1Cl,x,x,38,-1.3,x,
COc1ccc(-c2noc(CSc3nc(N)c(-c4ccccc4)c(=O)[nH]3)n2)cc1OC,4,4,80,4.3,-2%,
O=C(Nc1ccccc1O)c1nc(Cl)ccc1Cl,x,11,-12,2.3,2%,
O=S1(=O)N=C(Nc2ccc(O)c(CN3CCCCC3)c2)c2ccccc21,-38,4,-1,-2.8,-12%,Arbovirus inh repeat=-3
CC1(C)NC(=O)N(CC(O)CN2CCCCC2)C1=O (stereo not drawn),-28,3,-6,-1.6,-6%,
COc1ccc(N2CCN(C(=O)c3ccc(N4CCCCS4(=O)=O)cc3)CC2)cc1,x,x,3,-3.6,x,
CC(=O)N1CCN(c2ccccc2NC(=O)c2cccc3c(Cl)cccc23)CC1,x,x,-7,-1.5,x,
O=C1[C@H]2[C@H](C=CC[C@H]2C(=O)N2CCN(c3ccccc3)CC2)CCN1Cc1ccc(Cl)c(Cl)c1,x,x,74,11,18%,
O=C(CSc1nc(-c2ccco2)cc(C(F)(F)F)n1)NCCCn1ccnc1,-28,9,0,-2.1,0%,Arbovirus inh repeat=-2
CC[C@]12C=CCN3CCC4(c5cc(Br)c(OC)cc5N(C)C4[C@@](O)(C(=O)OC)[C@@H]1OC(C)=O)C32 (stereo partly drawn),x,14,-5,1.9,9%,
CC(=O)c1ccc(S(=O)(=O)Nc2ccc(C(=O)NCC(c3ccccc3)N(C)C)cc2)cc1 (stereo not drawn),x,0,1,3.3,5%,
CC(C)Oc1ccc(NC(N)=O)cc1,-27,8,-4,-2.1,-5%,
CN(C)C(=O)c1cc(-c2ccccc2)no1,x,8,-3,-1.9,-4%,
Cc1cccc(OCC(=O)Nc2ccc(S(=O)(=O)Nc3cc(C)nc(C)n3)cc2)c1,x,-3,-13,5.7,0%,
CCOC(=O)c1nn(-c2ccc(F)cc2)c(=O)cc1OCC(=O)N1CCN(c2ccccc2)CC1,x,x,-13,0.1,x,
Cc1cccc(NC(=O)c2cccc(OC(=S)N3CCOCC3)c2)c1,x,x,-7,0.9,x,
CC1=CC(c2ccccc2)n2nc(N3C(=O)C4CC=CCC4C3=O)nc2N1 (stereo not drawn),-18,7,-6,-11,-5%,
COc1ccc(C2N3CC4(C)CN2CC(C)(C3)C4=O)cc1OC (stereo not drawn),1,0,u,1.6,-2%,Arbovirus inh repeat=2
COc1cccc(-c2cc(C(=O)Nc3cccnc3)c3ccccc3n2)c1,x,x,47,0.7,x,
COc1cc(NC(=O)c2ccc3c(SCC(=O)O)c4c(nc3c2)CCCC4)cc(OC)c1OC,x,3,14,9.6,1%,
Cc1ccc(C(=O)OCc2c(C)noc2C)cc1NC(=O)c1ccco1,x,2,1,9.3,1%,
N#Cc1ccc(-n2c(-c3ccccc3)nnc2-c2ccccc2)cc1C#N,27,-17,5,50*,8%,
O=C(C1CCCO1)N1CCC(O)(c2ccccc2)CC1 (stereo not drawn),-35,7,-13,-1.1,2%,
CCOc1ccc(C(=O)NCC(=O)NC(C)CCc2ccccc2)cc1OCC (stereo not drawn),x,x,-7,0.5,x,
O=C(Nc1ccc2c(c1)OCO2)c1cc(C2CC2)on1,-32,-26,1,-0.6,7%,Arbovirus inh repeat=-24
O=S(=O)(c1ccc(C(F)(F)F)cc1)N1CCN(CCc2ccccc2)CC1,x,x,10,-0.4,x,
COc1cccc(N2CCN(C(=S)NCc3ccco3)CC2)c1,-13,6,8,-1.1,-13%,
COc1ccccc1NC(=O)CN1C(=O)CCS(=O)(=O)c2ccccc21,10,1,-6,1.8,-3%,
Cc1ccc(-c2cc(C(F)F)nc(NCc3cccnc3)n2)cc1,3,-13,70,x,-3%,Arbovirus inh repeat=-14
O=C(N/N=C/c1ccccc1)C(=O)N/N=C/c1ccccc1,x,x,1,-2.1,x,
Cc1cccc(NC(=S)NC(=O)/C=C/c2ccco2)c1,x,-8,-1,6.7,4%,

# (next part)
SMILES,YopH inh,Arbovirus inh,Mtb betalactam,RecA splice inh,Mtb H37Rv,others
Cc1ccc(CNC(=O)CN(C)S(=O)(=O)c2cccs2)cc1,x,0,-2,-1.2,3%,
CCN(CC)S(=O)(=O)c1cc(NC(=O)COC(=O)c2sc3ccccc3c2Cl)ccc1C,-23,2,24,0.8,6%,
Cc1onc(-c2ccccc2Cl)c1C(=O)O/N=C(\N)c1ccc([N+](=O)[O-])o1,x,x,100,-4.5,u,
Cc1sc2ncnc(N3CCCC(C)C3)c2c1C (stereo not drawn),x,7,7,2.4,3%,
CC(C(=O)O)n1nc(-c2ccccc2)c2ccccc21 (stereo not drawn),x,x,-1,-1.0,x,
COc1ccc(Cl)cc1NC(=O)Cn1cccc1,-29,-3,33,1.4,17%,
c1ccc(CSc2ncccn2)cc1,-13,2,3,-1.3,4%,
CCc1nc2c(c(=O)c3ccccc3n2C)c(=O)n1-c1ccc(F)cc1,-35,3,-6,-0.6,-1%,
Nc1cc(Cl)ccc1Oc1ccccc1,-6,-6,-3,1.9,-3%,
COc1ccc(Br)cc1CN1CCN(C(=O)c2ccc(OC)c(OC)c2)CC1,x,10,-3,1.2,-7%,
Cc1cccc(OCC(=O)Nc2ccc3c(c2)nc(CCN2CCCCC2)n3C)c1,x,x,-10,0.3,x,
COC(=O)c1cccc(NC(=O)c2nn(C)c(=O)c3ccccc23)c1,-42,-2,-7,1.1,3%,
OC1CN=C2Sc3ccccc3N2C1 (stereo not drawn),1,6,-3,0.2,-8%,
CCc1ccc(NC(=O)c2cccnc2)cc1,-35,5,12,-6.9,-6%,
COc1cccc(OC)c1C(=O)N1CCN(Cc2cccnc2)CC1,x,x,-3,0.0,x,
Cc1ccccc1-c1n[nH]c(=S)n1Cc1ccccc1,x,2,2,2.0,2%,
COc1ccc(C(CNC(=O)c2cccc(S(=O)(=O)Nc3ccccc3Cl)c2)N2CCOCC2)cc1 (stereo not drawn),x,x,7,-1.3,x,
Cc1ccc(S(=O)(=O)N(C)C)cc1NC(=O)c1ccncc1,x,-1,-6,-0.9,-1%,
CCN1CCN(CC(=O)Nc2cc(C(F)(F)F)ccc2OCCOC)CC1,x,x,41,-5.1,-4%,
CC(=O)c1sc(-c2ccccn2)nc1C,x,3,3,-2.8,-7%,
CCOc1ccccc1NC(=O)Nn1cnnc1,x,x,-4,-1.3,x,
CCCCCCNC(=O)N[C@@H](C(=O)NCCC[C@H]1CN2C(=NC[C@@H]2Cc2ccccc2)N1CCc1cccc(OC)c1)C(C)C,x,x,100,8.5,u,
COc1ccc(C(=O)N/C(=C\c2cccc3ccccc23)C(=O)N2CCN(C)CC2)cc1OC,x,6,-4,-2.2,6%,
O=S(=O)(/N=C/N1CCOCC1)c1ccc(Cl)cc1,-32,-5,-8,0.2,-14%,
CC(=O)Nc1ccc(S(=O)(=O)N(C)CC(=O)OCC(=O)N(CC(C)C)C2CCS(=O)(=O)C2)cc1 (stereo not drawn),x,x,-3,-1.8,x,
O=C(O)c1cccc(CSc2nc(-c3ccccc3)cc(C(F)(F)F)n2)c1,-15,23,-8,-2.2,5%,
CC(=O)Nc1ccc(S(=O)(=O)NCc2ccc(C(=O)N3CCOCC3)cc2)cc1,x,x,-5,-4.3,x,
O=S(=O)(Cc1ccccc1)Nn1cnnc1,-40,7,7,0.6,-2%,
O=C(COc1ccc(F)cc1)c1c(O)cc(O)cc1O,x,x,-8,-1.4,-10%,
COC1=C/C(=C/c2c(O)c(C#N)c3ccccn23)C=CC1=O,x,x,5,-259,-1%,
COc1ccc(CNC(=O)C/C(C)=N/NC(=O)c2ccc([N+](=O)[O-])cc2Cl)cc1,x,1,-6,-3.9,6%,
S=c1[nH]nc(-c2ccco2)n1C1CCCCC1,-37,-5,-2,-0.9,0%,
CC(/C=C/c1ccccc1)=N\NC(=O)CCc1ccccc1,x,-10,1,5.7,-4%,
O=C(Nc1ccc(S(=O)(=O)N2CCOCC2)cc1)C1CCN(S(=O)(=O)c2ccc(F)cc2)CC1,x,x,7,1.3,x,
O=C(CN1CCC(NC(=O)c2ccco2)CC1)Nc1ccccc1C(F)(F)F,x,x,-6,0.8,x,
Cc1ccc(C(=O)COC(=O)c2ccc3c(c2)C(=O)N(c2cccc4ncccc24)C3=O)cc1C,-27,5,32,-0.9,-2%,
CCOC(=O)CNc1ncc(C(F)(F)F)cc1Cl,x,16,1,-2.4,0%,
O=C(Nc1ccccc1F)c1oc2ccccc2c1NC(=O)C1CC1,x,x,u,6.8,x,
CCCOc1ccc(CSC2=NCCN2)cc1[N+](=O)[O-],-11,-9,-5,4.8,x,
CCOC(=O)C1CCN(C(=O)Cn2cnc3sc(C)c(S(=O)(=O)N4CCC(C)CC4)c3c2=O)CC1,x,x,-8,2.9,x,

# Filtered by structure: the compounds so far containing an NH in an aromatic ring (four)
SMILES,YopH inh,Arbovirus inh,Mtb betalactam,RecA splice inh,Mtb H37Rv,others
O=c1cc(CSc2nnc(COc3cccc4ccccc34)o2)c2ccccc2[nH]1,x,x,2,3.9,x,
COc1ccc(-c2noc(CSc3nc(N)c(-c4ccccc4)c(=O)[nH]3)n2)cc1OC,4,4,80,4.3,-2%,
Cc1ccccc1-c1n[nH]c(=S)n1Cc1ccccc1,x,2,2,2.0,2%,
S=c1[nH]nc(-c2ccco2)n1C1CCCCC1,-37,-5,-2,-0.9,0%,

# Source: PubChem BioAssay
